High-throughput results deposited in PubChem BioAssay by National Center for Advancing Translational Sciences (NCATS).
Rango release inh = qHTS Assay for Inhibitors of RanGTP induced Rango (Ran-regulated importin-beta cargo) - Importin beta complex dissociation; Snurportin-1 (Homo sapiens) + GTP-binding nuclear protein Ran (Homo sapiens) + Importin …; Biochemical FRET Rango-importin beta, RanGTP-induced dissociation; Potency, µM (highest dose often 46.1 µM), without a hit: top-dose activity change, negative = inhibition; hit rate 0.071% among 340,000; AID 540253, 2011; active means falling FRET ratio curve, often poorly fitted, with flat reads before Ran was added; inconclusive means other falling curves, or compound fluorescence or quenching; inactive means flat or rising ratio curve;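 note: potency is the fitted concentration of half-maximal effect; % of control where 0% means no effect; nearly all actives have a fitted effect of over 45% in size; -100% = wells without RanGTP and RCC1; the record marks most hits as doubtful in a second field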
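Compounds preincubate 5 min with complex of recombinant Rango and importin beta in PBS with 1 mM DTT. Ran (0.6 uM) loaded with 2 mM GTP plus 0.2 uM RCC1 starts dissociation; FRET is recorded 45 min later.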
Rango-impB inh = qHTS Assay for Inhibitors of Rango (Ran-regulated importin-beta cargo) - Importin beta complex formation. Importin subunit beta-1 (Homo sapiens), Q14974. Rango CFP/YFP FRET sensor + importin beta, 45 min. hit rate 0.031% among 340,000. AID 540263, 2011. Potency, µM (doses to about 92.2 µM), inactives show at the top dose inhibition of complex formation; active = rising FRET ratio curve, often small or poorly fitted; inconclusive = mostly compound fluorescence or quenching in the first reads; inactive = flat curves in all reads;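 note: potency is the fitted concentration of half-maximal effect; 0% = DMSO wells and 100% = buffer wells lacking importin beta; nearly all actives have a fitted effect of over 15% in size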
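FRET biosensor (snurportin 1 IBB flanked by EYFP and cerulean), 50 nM, with compound 5 min, then 0.125 microM importin beta in PBS, 1 mM DTT, 0.02% Tween-20, 0.1% BSA. CFP/YFP ratio read after 45 min at room temperature; pre-read flags interference.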
miR-21 reporter = qHTS Assay for Modulators of miRNAs and/orActivators of miR-21; HeLa miR-21 FLuc reporter, luciferase, 48 h; Potency, µM (doses to about 38.3 µM), inactives show at the highest dose reporter change, positive = more light; 340,000 tested, under 10 active; AID 2288, 2010; active = well fitted rising curve with a large enough effect; inconclusive = small, poorly fitted or top-dose-only effect; inactive = no such curve, though single readings can be large or run the other way;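 note: % of control where 0% means no effect; miR-21 action dims this reporter so a rising signal means less miR-21 action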
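Luminescence from a firefly luciferase reporter carrying a miR-21 binding site downstream, stably expressed under a CMV promoter in HeLa cells that make miR-21 endogenously, reports miRNA modulation after 48 h compound exposure up to approximately 40uM final.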
Numbers without * were called inactive. An excerpt, so the mix of outcomes need not match the whole.

SMILES | Rango release inh | Rango-impB inh | miR-21 reporter
O=C(CCN1CCN(CCO)CC1)N1c2ccccc2Sc2ccc(C(F)(F)F)cc21 | 0% | 0.7% | -1%
